# HSV augment – enhancers of HSV replication in host cells, fold increase, host cell viability | HSV replication augmentation in cells | maximum fold increase | actives 0.005% (n = 220,000) | AID 1956, 2009;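 active means peak rise of 1.5-fold or more in the series; tested in PC3 cells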;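 further: first round at 10 µM; read as green reporter fluorescence; hits show the peak of a series up to 25 µM; 1 = signal of infected wells without compound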
# PKD1 inh – inhibitors of human PKD1 kinase, biochemical, fluorescence polarization; PKD1 kinase fluorescence polarization assay; AID 797, 2007; Serine/threonine-protein kinase D1 (Homo sapiens), Q15139; actives 0.056% (n = 200,000); inhibition, %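 (about 10 µM by stock and volumes)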;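 active means inhibition of 50% or more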;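 further: controls were vehicle for no effect and a reference inhibitor for full effect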
# Target sequence (Q15139 whole entry, looked up): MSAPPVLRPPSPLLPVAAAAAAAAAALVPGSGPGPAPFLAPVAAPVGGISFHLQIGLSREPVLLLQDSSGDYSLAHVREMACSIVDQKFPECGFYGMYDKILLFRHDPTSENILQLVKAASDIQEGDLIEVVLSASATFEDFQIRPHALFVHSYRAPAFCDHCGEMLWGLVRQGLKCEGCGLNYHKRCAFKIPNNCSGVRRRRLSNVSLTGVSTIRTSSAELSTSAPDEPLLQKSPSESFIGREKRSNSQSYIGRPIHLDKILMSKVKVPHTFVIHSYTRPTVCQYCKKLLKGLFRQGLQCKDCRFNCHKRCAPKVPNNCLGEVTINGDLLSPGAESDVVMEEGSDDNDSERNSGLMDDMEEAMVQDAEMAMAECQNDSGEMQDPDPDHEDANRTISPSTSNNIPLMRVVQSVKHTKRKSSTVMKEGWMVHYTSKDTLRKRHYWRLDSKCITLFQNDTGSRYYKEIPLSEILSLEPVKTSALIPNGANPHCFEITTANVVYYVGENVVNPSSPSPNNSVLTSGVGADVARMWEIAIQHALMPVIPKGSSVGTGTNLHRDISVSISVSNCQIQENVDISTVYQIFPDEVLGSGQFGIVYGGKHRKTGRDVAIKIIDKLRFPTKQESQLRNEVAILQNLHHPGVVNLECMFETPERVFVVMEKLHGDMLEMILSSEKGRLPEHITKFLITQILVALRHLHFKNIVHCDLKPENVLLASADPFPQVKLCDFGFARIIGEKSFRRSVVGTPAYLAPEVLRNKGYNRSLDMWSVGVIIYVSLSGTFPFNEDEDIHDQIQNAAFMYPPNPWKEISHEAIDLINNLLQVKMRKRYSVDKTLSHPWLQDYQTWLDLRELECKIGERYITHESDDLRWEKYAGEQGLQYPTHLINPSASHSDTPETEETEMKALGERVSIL
# Insulin prom inh – inhibitors of insulin promoter-driven GFP, primary screen, imaging, TRM-6 cells (human fetal islet line), eGFP reporter, cell count; actives 0.9% (n = 130,000); reporter expression induced with tamoxifen; inhibition, % at 2 µM;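 active means inhibition above the mean plus 3 SD, with well images judged a real hit on visual review, cut at about 60% in these data, passing the limit was not always enough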
# GALR2 agonist – GALR2 receptor agonists, primary screen, cell-based. AID 803, 2007. actives 0.48% (n = 140,000). GALR2-expressing cells, agonist activation read-out. activation, %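 (tested at 5 µM)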;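 active means above mean plus 3 SD of all compounds, about 5% in these data, not always enough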;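 further: 0% = vehicle buffer wells and 100% = reference agonist at full effect; tested in CHO reporter cells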
# RGS16-Gao – modulators of RGS16 binding to Galphao, primary screen, biochemical, human proteins, multiplexed bead flow cytometry; Regulator of G-protein signaling 16 (Homo sapiens) + Guanine nucleotide-binding protein …; bead-based flow cytometry RGS16-Galphao binding, fluorescence; actives lie on both sides; binding response (% of control), % at 10 µM; actives 0.38% (n = 220,000);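 active means below 25% or above 175%, edge rows of some plates excepted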;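 further: Galphao activated by GDP with aluminum fluoride before binding; 100% = wells without compound and 0% = beads without RGS; some results beyond the cut were filed as inactive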
# Insulin prom inh cell count – further read-out of Insulin prom inh, marked with its call; normalized cell count, %; measured here: cell count, toxicity; reference of the scale not given here;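 cells exposed to compound for 48 h; stained nuclei by imaging scaled within each plate; lower means fewer cells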
# HSV augment primary fold – also measured in HSV augment; calls as there; fold increase; compound at 10 µM; measured here: primary screen fold increase 10 uM; tested in PC3 cells;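 GFP signal in the first replicate; 1 = infected wells without compound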
# Active calls of the source: *; i = inactive; x = no result given.
# The first three compounds, to show the layout:
SMILES,HSV augment,HSV augment primary fold,PKD1 inh,Insulin prom inh,Insulin prom inh cell count,GALR2 agonist,RGS16-Gao
COc1cc(S(=O)(=O)NCC2CCCO2)ccc1Br (stereo not given),i,1.05,-1.6,-47.2,59.8,-1.9,110.8
OCCC1CN(CC#Cc2ccccc2)CCN1C1CCCC1 (stereo not given),i,0.88,-2.4,x,x,x,108.3
Fc1ccc(NC(=S)N2CCCC2)cc1Cl,i,0.97,-10.3,-20.0,118.8,0.5,106.9

# Results, from the start:
SMILES,HSV augment,HSV augment primary fold,PKD1 inh,Insulin prom inh,Insulin prom inh cell count,GALR2 agonist,RGS16-Gao
COc1cc(S(=O)(=O)NCC2CCCO2)ccc1Br (stereo not given),i,1.05,-1.6,-47.2,59.8,-1.9,110.8
OCCC1CN(CC#Cc2ccccc2)CCN1C1CCCC1 (stereo not given),i,0.88,-2.4,x,x,x,108.3
Fc1ccc(NC(=S)N2CCCC2)cc1Cl,i,0.97,-10.3,-20.0,118.8,0.5,106.9
CCOc1ccc(OCC)c(NC(=O)CN(C)S(=O)(=O)c2cnc[nH]2)c1,i,0.9,-6.1,30.8,111.7,-0.9,96.3
O=c1c2c3c(sc2nc2n1CCC2)CCCC3,i,0.88,x,x,x,x,105.0
O=C(Nc1ccc(CN2CCOCC2)cc1)c1ccc(N2CCCC2)c([N+](=O)[O-])c1,i,1.02,4.2,41.2,120.3,x,95.4
O=C(N/N=C/c1ccc([N+](=O)[O-])o1)c1ccncc1,i,1.15,x,x,x,x,104.0
Cc1ccc(OCC(=O)N/N=C/c2cccn2C)cc1,i,1,4.6,71.4*,43.1*,-1.8,103.5
Cc1ccc(NC(=O)c2ccc(NCC3CCCO3)c([N+](=O)[O-])c2)cc1Cl (stereo not given),i,0.96,-20.4,44.4,88.9,-1.2,106.7
CC(NC(=O)c1ccccc1F)C(=O)O (stereo not given),i,0.88,-9.8,28.6,154.2,-2.3,97.6
CCc1nnc(NC(=O)C2CC(=O)N(c3ccc4c(c3)OCCO4)C2)s1 (stereo not given),i,0.92,-7.0,x,x,0.1,101.1
O=C(COC(=O)c1ccccc1)Nc1ccc(Cl)cn1,i,0.86,-3.0,x,x,x,103.4
O=C1CCC2(C(=O)O)Sc3ccccc3N12 (stereo not given),i,0.82,-2.8,37.8,76.2,-4.4,89.6
CCC1CSC(Nc2ccc(C(=O)/C=C/c3ccc(Br)cc3)cc2)=N1 (stereo not given),i,0.85,1.8,3.2,84.7,-0.3,100.7
O=[N+]([O-])/C=C/c1cn(Cc2ccc(Cl)cc2)c2ccccc12,i,0.88,-11.1,2.8,104.0,-0.3,105.0
CC(CC(=O)NC(C)c1ccc2c(c1)OCCO2)c1ccccc1 (stereo not given),i,0.89,-4.1,-3.1,83.9,-1.3,102.9
Cn1c(=O)c(-[n+]2ccccc2)c([O-])c2ccccc21,i,1.01,7.9,0.0,86.8,-2.2,78.5
COCCn1c(SCC(=O)N(C(C)C)C(C)C)nnc1-c1cc2ccccc2cc1O,i,0.97,9.2,x,x,0.1,79.2
Cc1cccc(S(=O)(=O)C(C#N)c2nc3ccccc3nc2N2CC(C)OC(C)C2)c1 (stereo not given),i,0.92,-5.2,x,x,-0.1,102.0
Fc1ccccc1NC(=S)N1CCN(C/C=C/c2ccccc2)CC1,i,1.07,-0.5,33.3,152.5,-0.6,104.1
Cc1ccc(S(=O)(=O)N(CC(O)CN2C(=O)NC(C)(C)C2=O)c2ccccc2)cc1 (stereo not given),i,1.03,0.8,13.9,144.0,-3.1,103.5
O=S(=O)(c1ccccc1)n1c(C(O)c2ccccn2)cc2ccccc21 (stereo not given),i,1.01,-2.8,-12.8,133.5,-0.2,105.2
O=CN/N=C/c1c(O)ccc2ccccc12,i,0.71,x,x,x,x,94.9
COc1cccc(NC(=O)Nc2nccc(C)n2)c1,i,0.98,-0.9,x,x,x,102.3
CCn1c(-c2nn(-c3ccc(C)cc3)ccc2=O)n[nH]c1=S,i,1.03,-3.4,x,x,x,96.1

# By substructure: the entries above with a COOH group.
SMILES,HSV augment,HSV augment primary fold,PKD1 inh,Insulin prom inh,Insulin prom inh cell count,GALR2 agonist,RGS16-Gao
CC(NC(=O)c1ccccc1F)C(=O)O (stereo not given),i,0.88,-9.8,28.6,154.2,-2.3,97.6
O=C1CCC2(C(=O)O)Sc3ccccc3N12 (stereo not given),i,0.82,-2.8,37.8,76.2,-4.4,89.6

# Following part
SMILES,HSV augment,HSV augment primary fold,PKD1 inh,Insulin prom inh,Insulin prom inh cell count,GALR2 agonist,RGS16-Gao
CCn1c(O)c(C=NCCN2CCOCC2)sc1=S,i,0.97,3.2,45.5,61.8,-0.8,99.7
COc1ccc(/C=N/NS(C)(=O)=O)c(OC)c1,i,0.9,-3.0,3.3,104.7,0.3,102.1
COc1cccc(C(=O)OCn2nnc3ccccc3c2=O)c1OC,i,0.87,x,x,x,x,96.3
Cc1cccc(C(CC(=O)NCCc2ccccc2)c2ccccc2)c1O (stereo not given),i,0.77,-7.5,x,x,x,102.2
O=C(N/N=C/c1cccnc1)c1ccc([N+](=O)[O-])cc1,i,0.95,-10.6,-4.9,86.7,-0.6,100.5
Cc1ccccc1N(CC(=O)NCc1ccco1)C(=O)CCC(=O)Nc1nccs1,i,0.98,-2.8,x,x,x,99.1
O=C(Nc1ccc(OC(F)F)c(Cl)c1)[C@@H]1CCCN1C(=O)c1cccs1,i,0.99,-1.8,x,x,0.2,101.1
COc1ccc(NC(=O)NC2CCN(C(C)C)CC2)c(OC)c1,i,1.05,3.4,21.4,148.0,1.0,104.2
CCNc1ccc([N+](=O)[O-])cc1,i,1.12,x,x,x,x,99.3
COc1ccc(NC(=O)COC(=O)COc2ccc(Br)cc2)cc1,i,1.01,-4.7,-48.1,90.6,x,102.3
Fc1cccc(CSc2ccc(-c3ccco3)nn2)c1,i,0.9,-1.3,x,x,0.4,90.0
COc1ccc(N(C)S(=O)(=O)c2c(C)noc2C)c(OC)c1,i,1.01,2.3,-18.5,99.2,x,94.6
O=C(c1ccco1)N1N=C(c2ccccc2)CC1c1ccc2nccnc2c1 (stereo not given),i,1.01,x,x,x,x,89.8
Cc1cccc(CN2C(=O)N/C(=C/c3ccc(C)s3)C2=O)c1,i,1.01,-1.8,-96.4,115.5,0.6,100.8
CC(C)(C)n1nnnc1CN(Cc1cccnc1)Cc1ccccc1Cl,i,1.02,1.9,x,x,-1.5,99.0
CC(C)CNC(=O)c1cc(-c2ccc(Br)cc2)on1,i,1.07,8.4,25.0,129.1,-1.5,77.8
O=C(NCc1ccc(S(=O)(=O)NC2CCCCC2)s1)c1ccccc1,i,1.06,x,x,x,x,109.7
CCc1c(C)nc2nc(NC(C)=O)[nH]n2c1=O,i,0.97,-9.0,-10.1,127.7,-1.9,91.6
O=C(NCc1ccc(OC(F)(F)F)cc1)C12CN(Cc3ccccc3)CC1C(c1cccc([N+](=O)[O-])c1)=NO2 (stereo not given),i,0.98,7.3,-34.1,110.8,1.6,101.3
COc1ccc(CCNC(=O)C2CCN(C(=O)NC3CCCCC3)CC2)cc1,i,0.86,-5.9,18.8,152.0,-2.4,123.0
CC1(C)CC(=O)C2=C(C1)N(c1cccnc1)C(N)=C(C#N)C2c1cccs1 (stereo not given),i,1.09,-12.8,-55.6,64.9,0.2,100.5
CCCCn1c(=S)[nH]c2ncccc2c1=O,x,x,4.2,x,x,-1.0,103.5
CCOc1ccccc1NS(=O)(=O)c1c(C)noc1C,i,0.81,-6.7,-36.0,80.9,-1.4,70.7
O=C(Cc1c(O)c2ccccc2[nH]c1=O)OC1CCCCC1,i,1.01,-14.5,-30.8,90.3,-1.0,100.9
Cc1cccn2c(CNCC3OCCc4ccccc43)c(C(=O)N3CCCCC3)nc12 (stereo not given),i,0.99,-5.2,x,x,x,98.8

# Single records, from the list above:
# `CC1(C)CC(=O)C2=C(C1)N(c1cccnc1)C(N)=C(C#N)C2c1cccs1` (stereo not given) across the screens: HSV augment: i; HSV augment primary fold: 1.09; PKD1 inh: -12.8; Insulin prom inh: -55.6; Insulin prom inh cell count: 64.9; GALR2 agonist: 0.2; RGS16-Gao: 100.5
# `O=C(N/N=C/c1cccnc1)c1ccc([N+](=O)[O-])cc1` across the screens: HSV augment: i; HSV augment primary fold: 0.95; PKD1 inh: -10.6; Insulin prom inh: -4.9; Insulin prom inh cell count: 86.7; GALR2 agonist: -0.6; RGS16-Gao: 100.5

# Additional structures.
SMILES,HSV augment,HSV augment primary fold,PKD1 inh,Insulin prom inh,Insulin prom inh cell count,GALR2 agonist,RGS16-Gao
COC(=O)c1c(NC(=O)CC2Nc3cc(C)c(C)cc3NC2=O)sc(C)c1C (stereo not given),i,0.84,0.0,x,x,-0.7,102.3
CC(=O)Nc1nc(COc2ccccc2)cs1,i,0.96,-5.8,-93.3,106.5,-1.9,96.4
O=c1cc[nH]c2cccc(Cc3ccccc3)c12,i,1.08,-2.8,-97.0,78.2,-0.8,96.5
COc1ccc2nc(SC)cc(C)c2c1,i,1.11,x,x,x,x,98.4
Cc1nc2nc(-c3cccs3)cn2nc1C,x,x,-5.4,x,x,-1.1,20.0
Cc1cc(C)c(S(=O)(=O)c2ccccc2)c(N(C)C)n1,i,1,-4.7,-11.1,139.6,-2.5,101.1
COc1cc2c3nnc(-c4ccc(F)cc4)c-3cn(Cc3ccc(F)cc3)c2cc1OC,i,1.01,6.0,x,x,2.1,100.8
O=c1c(S(=O)(=O)c2ccc(Cl)cc2)cn(Cc2cccc(F)c2)c2ccc(F)cc12,i,0.9,0.2,-3.2,44.6,-1.4,119.5
Cc1ccc(C(=O)Nc2c(C(=O)NCc3ccco3)cnn2-c2ccccc2)cc1,i,0.82,-6.2,x,x,-2.1,99.7
CCc1cc(OCCCCNCc2ccccc2)ccc1Cl,i,0.98,-3.2,26.3,129.1,1.5,114.3
COC(=O)c1ccccc1NC(=O)CSc1nc(C)cc(C)n1,i,1.02,0.8,x,x,x,104.4
O=C(NCCO)/C(=C/c1ccc2c(c1)OCO2)NC(=O)c1ccc(Br)cc1,i,1.07,-6.4,-7.7,92.1,x,76.2
CCCCC(=O)OCC(=O)c1[nH]c(C)c(C(=O)OCC)c1C,i,1,-1.2,13.5,55.6,-2.8,110.4
Cc1ccc(OCCC(=O)OCC(=O)NCCc2ccccc2)cc1,i,1.01,1.6,42.9,113.7,x,100.6
COc1cc(C=O)ccc1OCCSc1ccc(C)cc1,i,1.17,2.8,28.6,124.4,-2.8,100.7
Cc1ccc2c(c1)NC(=O)C(CC(=O)NCCCN1CCN(c3cc(Cl)ccc3C)CC1)O2 (stereo not given),i,0.82,-0.9,x,x,-1.6,99.6
CNC(=O)C1CC(=O)N(c2ccc(C)cc2)C1 (stereo not given),i,0.92,-4.2,45.5,96.4,0.4,99.8
COc1ccccc1NC(=O)C1C2CCCCC21 (stereo not given),x,x,-6.1,x,x,-1.2,58.2
CN(CC(=O)N1CCN(c2cccc(Cl)c2)CC1)S(=O)(=O)c1cnc[nH]1,i,0.87,-3.6,0.0,104.2,-0.7,82.1
CC1(C)NC(=O)N(c2ccccc2Cl)C1(C)NO (stereo not given),i,0.9,-2.7,7.1,132.2,-2.2,100.9
Cc1ccc(Oc2ccc(NC(=O)CCC(=O)OCC(=O)c3cccs3)cc2)cc1C,i,0.93,-9.5,7.7,91.3,-2.3,101.9

# An excerpt from above in order of count of non-hydrogen atoms, high to low.
SMILES,HSV augment,HSV augment primary fold,PKD1 inh,Insulin prom inh,Insulin prom inh cell count,GALR2 agonist,RGS16-Gao
Cc1ccc2c(c1)NC(=O)C(CC(=O)NCCCN1CCN(c3cc(Cl)ccc3C)CC1)O2 (stereo not given),i,0.82,-0.9,x,x,-1.6,99.6
CC(=O)Nc1nc(COc2ccccc2)cs1,i,0.96,-5.8,-93.3,106.5,-1.9,96.4
COc1ccc2nc(SC)cc(C)c2c1,i,1.11,x,x,x,x,98.4

# This is a random part of the collection. About 1.3% of those tested had a hit in this group.
